MgrA-DNA mod – S. aureus MgrA-DNA binding modulation. fluorescence polarization. inhibition, %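 (about 10 µg/mL by stock and volumes)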. hit rate 0.13% among 84,000;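 active = above 50% in either of two replicates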;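 note: 0% = protein plus DNA without compound and 100% = DNA alone without protein; higher means less MgrA bound to DNA so lower polarization; one replicate is shown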
Sa helicase inh – blocks Staphylococcus aureus DNA helicase; purified S. aureus helicase, fluorescence unwinding assay; about half of the hits fall short of the stated cut; inhibition, %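 (tested at about 80 µM)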; hit rate 0.05% among 120,000;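 active = both duplicates at 50% or more, or one of them with a favoured structure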;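 note: 0% = mean of negative control wells and 100% = mean of positive control wells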
* marks the source's active call; other numbers are inactive results; / = not tested or not shown. An excerpt; the hit share may differ from the screen's.

The first 2 records as a preview:
SMILES	MgrA-DNA mod	Sa helicase inh
CCc1ccc(NC(=O)CSc2nc3c(c(=O)n2CC)SC(C)C3)cc1 (stereo not drawn)	-3.0	4
C=CCN1Cc2ccc3ccccc3c2-c2c(ccc3ccccc23)C1	-1.4	/

All compounds of this part, previewed entries included:
SMILES	MgrA-DNA mod	Sa helicase inh
CCc1ccc(NC(=O)CSc2nc3c(c(=O)n2CC)SC(C)C3)cc1 (stereo not drawn)	-3.0	4
C=CCN1Cc2ccc3ccccc3c2-c2c(ccc3ccccc23)C1	-1.4	/
CCn1c(=N)c(S(=O)(=O)c2ccc(C)cc2)cc2c(=O)n3ccccc3nc21	1.2	1
C/C(N)=C(/C#N)C(=O)CSc1nnc(-c2ccc(Cl)cc2)n1CC1CCCO1 (stereo not drawn)	/	11
CC(C)c1nnc(NCC(C)(C)C)s1	-3.2	/
CCC(=O)Nc1ccc(C(=O)N2CCN(CC)CC2)cc1	0.8	-15
O=C(COC(=O)C12CC3CC(CC(Br)(C3)C1)C2)N1CCCCC1	0.2	9
Cc1csc(-c2sc3ccccc3c2O)n1	10	/
CC1CCN(C(=O)C2CCN(c3nnc(-n4cccc4)s3)CC2)CC1	/	18
CCn1c(C)c(CCC(=O)N2CCCC2)c(=O)n2nc(-c3ccccc3OC)cc12	-0.9	11
CCCOc1ccc(Cc2nc(N)c(NC(C)=O)c(=O)[nH]2)cc1	-3.8	7
CC1CN(S(=O)(=O)CC23CCC(CC2=O)C3(C)C)CC(C)O1 (stereo not drawn)	/	-11
COCCOC(=O)C1=C(C)NC(=O)NC1c1cc2c(cc1Br)OCO2 (stereo not drawn)	-0.2	/
Cc1csc(C(C#N)C(=O)CSc2nc3ccccc3n2-c2ccccc2)n1 (stereo not drawn)	/	-7
CCOC(=O)c1c(C)[nH]c(C(=O)Cn2ncc(Cl)c(Cl)c2=O)c1C	/	-5
Cc1ccc(N2CCN(C(=O)c3nc(-c4ccncc4)no3)CC2)c(C)c1	1.0	-8
Cc1ccc(C)c(OCC(=O)N(Cc2nnc(-c3ccc(Cl)cc3)o2)C2CC2)c1	/	3
O=C(OCN1C(=O)c2ccccc2C1=O)c1ccc2ncsc2c1	/	5
COc1cc(C=C2C(=O)NC(=S)NC2=O)cc(Cl)c1OCCOc1ccccc1C	32	/
CC(C)=C(C#N)c1nc2ccccc2[nH]1	2.7	-23
N=c1sccn1CC(=O)c1cccs1	/	-5
O=C([C@H](Cc1ccccc1)N1Cc2ccccc2C1=O)N1CCN(c2ccc(F)cc2)CC1	/	3
c1ccc(CN2CCC(Nc3ncnc4sccc34)CC2)cc1	0.6	/
O=C(c1cnc2c(c1)COc1ccccc1-2)c1cc(Cl)ccc1O	-2.4	3
CC(=O)N1CC(=O)N(O)C1c1ccc(Cl)cc1Cl (stereo not drawn)	1.1	10
CN(C)CCN(Cc1ccccc1)Cc1ccc(Cl)cc1	-5.5	19
O=C(NCc1cc2ccccc2s1)c1ccccc1N1CCOCC1	-2.2	/
CCOC(=O)Nc1nc2c(Cl)cccc2s1	-2.0	1
CNC(=O)Cc1csc2ccc(Cl)cc12	-2.8	/
COC(=O)C(N)Cc1ncc(C(F)(F)F)cc1Cl (stereo not drawn)	-2.0	/
Oc1cccc(/C=N/N2CCCCC2)c1O	-0.5	-1
CC1CCCCC1Nc1nc2ccccc2n2nnnc12 (stereo not drawn)	/	-125
CCOC(=O)COc1cccc2c(=O)n(CC(=O)NCc3ccc4c(c3)OCO4)ccc12	/	11
CN(c1ccccc1)S(=O)(=O)c1cccc(C(=O)OCc2nnc(-c3ccccc3)o2)c1	/	10
O=C(Nc1nnc(C2CC2)s1)C1Cc2ccccc2CN1S(=O)(=O)c1ccccc1F (stereo not drawn)	/	-7
CC1C(O)CCC1(C(=O)O)c1ccccc1 (stereo not drawn)	-2.1	7
Cc1ccccc1-c1noc(-c2nnn(-c3ccc(C(F)(F)F)c(Cl)c3)c2N)n1	/	-25
O=C(c1ccc2c(c1)N(Cc1cccc(Cl)c1)C(=O)CS2)N1CCOCC1	/	1
Cc1ccc2nc(-c3ccc(Br)o3)c(Nc3ccc4c(c3)OCCO4)n2c1	/	-36
COc1ccc(NC(=O)CCc2nc3cccnc3n2Cc2cccs2)cc1OC	/	-28
CCCN(CC1CC1)C(=O)CSc1nc2ccccc2[nH]1	/	0
O=C(CSCn1nnc2c(=O)[nH]c(Cc3ccc(F)cc3)nc21)Nc1ccc(F)cc1	-0.6	3
N#CC(C(=S)Nc1ccccc1)c1nc2ccccc2[nH]1 (stereo not drawn)	3.8	/
N#Cc1cn(Cc2ccccc2)c2ccccc12	/	-6
Cc1ccc2c(CC(=O)NCC3COc4ccccc4O3)coc2c1 (stereo not drawn)	/	3
NC(=O)c1cccc(CSCc2csc3ccccc23)c1	-2.0	/
Cc1cc(NC(=O)Cc2ccccc2)nc2c1c(=O)oc1ccccc12	/	-26
COC(=O)c1sc(=S)sc1C(=O)OC	0.8	/
Cn1c(=O)c2ccccc2n2c(COC(=O)c3cc4c(s3)-c3ccccc3CC4)nnc12	/	8
C=CCn1nnnc1-c1cccc(Cl)c1	-0.8	/

Other entries.
SMILES	MgrA-DNA mod	Sa helicase inh
O=C(NC1CCCC1)C1CCN(C(=O)N2CCOc3ccccc32)CC1	/	18
Cc1nc(C)c(CCC(=O)O)c(=O)[nH]1	/	6
COc1ccc(-n2cnc3cc(N=Cc4ccccc4O)ccc32)cc1	0.9	-17
CN(C)S(=O)(=O)c1ccc(C(=O)OC2=CC(=O)CC(C)(C)C2)cc1	/	-11
N#CC(C#N)C(c1ccccc1Cl)C(C(N)=O)[n+]1ccccc1 (stereo not drawn)	-2.2	8
O=C(O)CCS(=O)(=O)N1CCOCC1	/	-18
COc1ccc(-c2cc3nc(C)c(CCC(=O)Nc4ccccc4C(N)=O)c(C)n3n2)c(OC)c1	-0.6	13
c1ccc2[nH]c(SCCN3CCCC3)nc2c1	/	-18
COc1nc(NC23CC4CC(CC(C4)C2)C3)nc(OC)n1	1.0	-2
CCCc1ccc(-c2nc(CS(=O)(=O)c3ccsc3)no2)cc1	-3.2	/
O=C(NC(=O)c1ccc(C(F)(F)F)cc1)Nc1ccc(-c2cnco2)cc1	-0.8	/
CC1=C(C(=O)Nc2ccccc2)C(c2ccncc2)n2ncnc2N1 (stereo not drawn)	1.9	2
Cc1ccc(O)c(C(=O)c2cnc(Nc3nc4ccccc4[nH]3)nc2)c1	/	-1
O=C1CCCN1C(=O)CSc1nc2ccccc2o1	/	-10
NNS(=O)(=O)c1ccc(F)cc1	2.9	/
COc1cc(-c2nc3c4ccccc4c4ccccc4c3[nH]2)ccc1O	0.8	5
O=C(CSc1n[nH]c(-c2ccccc2Cl)n1)Nc1ccccc1F	/	3
C=CCN(CC=C)C(=S)Oc1ccc(C(=O)Nc2cccc3ccccc23)cc1	0.5	0
CC(=O)OCCn1nc(C)cc1Nc1ccccc1	0.1	11
COc1ccc(NC(=O)c2cc(=O)[nH]c3ccccc23)cc1	/	6
CCN(CC)C(=S)SCc1nc2ccccc2c(=O)[nH]1	/	-3
COc1ccc(-c2nn(CCC#N)c(=O)[nH]2)cc1	0.2	/
O=C1CC2(CCCCC2)C(=O)N1Cc1ccc(Cl)cc1	/	-6
Cc1cc(-n2c(C)cc(C(=O)COC(=O)C34CCC(=O)N3c3ccccc3S4)c2C)no1 (stereo not drawn)	/	-8
COc1ccc(OC)c(NC(=O)C2CCCCC2C(=O)O)c1 (stereo not drawn)	/	-7
O=c1ccc(-c2ccc3c(c2)OCO3)n[nH]1	/	-21
Cc1cc(C)c(C(=O)COc2ccc(-c3nnco3)cc2)cc1C	/	-4
CC(=O)N/N=C/c1ccc(Sc2ccc(C)cc2)o1	-2.1	2
Cc1ccc(OCc2nnc(SCC(=O)Nc3nccs3)n2C(C)C)c(C)c1	-3.4	-4
CCOc1cc(CNC23CC4CC(CC(C4)C2)C3)ccc1OCc1cccs1	-0.6	1
CCCCNC(=O)C1CCCN(S(=O)(=O)c2ccc(-n3cnnn3)cc2)C1 (stereo not drawn)	2.2	2
O=C(COc1ccccc1)n1c(=O)oc2ccccc21	/	15
O=C(CSc1ncn[nH]1)c1ccc(O)cc1O	/	-11
NNC(=O)/C(=C\c1ccccc1)NC(=O)c1ccccc1	-2.6	/
O=C(NC(=S)SCc1ccccc1)c1ccc(C(F)(F)F)cc1	-0.9	/
COc1ccc(-c2nc(CSc3nncs3)cs2)cc1	/	-3
CCOC(=O)c1c(CSc2ccccc2)n(-c2ccccc2)c2cc(Br)c(O)c(CN(C)C)c12	0.0	/
Cc1cc(=O)oc2c1c(C)nn2-c1nn[nH]n1	/	10
O=C(NCc1ccc2c(c1)OCO2)c1ccccn1	/	-4
O=C(Cn1c2ccccc2c2ccccc21)Sc1nc2ccccc2s1	2.6	7
CN1CCCN(C(=O)C2CCCCC2)CC1	-1.4	10
CC(C)c1ccc(Nc2nc(N3CCCCC3)nc(N3CCCCC3)n2)cc1	-0.3	-6
Cc1cc(C)nc(Nc2n[nH]c(COc3ccc4ccccc4c3)n2)n1	-2.8	20
Cc1ccc(N2C(=O)CC(Sc3nc4ccccc4o3)C2=O)cc1 (stereo not drawn)	-0.2	/
CSc1cccc(-n2c(-c3ccc(Cl)cc3)csc2=N)c1	1.9	/
COC(=O)C12CC3(C(=O)OC)CC(C(=O)OC)(CC(C(=O)OC)(C1)C3=O)C2=O	1.5	5
CCSc1nnc2c3cc(Br)ccc3n(C)c2n1	-3.3	3
O=C(NC1CCCCCC1)C1=CN2CCS(=O)(=O)N=C2C=C1	/	20
CCCc1cc(=O)[nH]c(SCC(=O)NC2Cc3ccccc3C2)n1	-3.3	/
O=C(CSc1ccccc1Cl)N1CCCC1	1.4	-20

Carrying on.
SMILES	MgrA-DNA mod	Sa helicase inh
COC(=O)c1cn(CC(=O)OCC(=O)Nc2ccc(N3CCOCC3)cc2)c2ccccc12	/	11
O=C(CCC(=O)N1CCSc2ccccc21)N1CCCCC1	3.4	17
Cc1ccc(/C=C/C(=O)O)cc1S(=O)(=O)N1CCCC1	/	21
Cc1cccc(C(=O)CC#N)c1	-0.5	/
Cc1cc(NC(=O)C2c3ccccc3C(=O)N(CC(C)C)C2c2cccs2)no1 (stereo not drawn)	/	0
Cc1cc2oc(=O)cc(CSc3ncccn3)c2cc1Cl	/	-26
CCCCCCc1ccc(-c2ccccc2)cc1	1.8	/
COc1ccc(-c2cc(C(F)(F)F)nc(SCCC(=O)N3CCN(C)CC3)n2)cc1	1.0	0
Cc1cc(C(=O)NCc2ccc(C(=O)O)o2)c(C)o1	6.5	-2
O=C(Cn1cnc2c(oc3ccccc32)c1=O)c1ccccc1	/	1

Next section, starting with the last 4 of the part before.
SMILES	MgrA-DNA mod	Sa helicase inh
CCCCCCc1ccc(-c2ccccc2)cc1	1.8	/
COc1ccc(-c2cc(C(F)(F)F)nc(SCCC(=O)N3CCN(C)CC3)n2)cc1	1.0	0
Cc1cc(C(=O)NCc2ccc(C(=O)O)o2)c(C)o1	6.5	-2
O=C(Cn1cnc2c(oc3ccccc32)c1=O)c1ccccc1	/	1
CCc1c(NCc2ccccc2)c2cccc3c2n(c1=O)CCC3	-1.9	/
Cc1cccc(NC(=O)C(=S)N2CCOCC2)c1C	20	15
CCOC(=O)N1CCC(N2Cc3cccc(C(=O)N4CCN(c5cccc(Cl)c5)CC4)c3C2=O)CC1	/	7
Cc1ccc(OCc2nnc(SCC(=O)c3ccc(F)cc3)n2-c2ccccc2)c2c1CCC2	-1.2	/
CCN(CC)CC(=O)Nc1ccc(S(N)(=O)=O)cc1	/	-7
Nc1nc(-c2ccc(-n3cccc3)cc2)cc(C(F)(F)F)n1	7.7	/
CCN(C(=O)CC(C)C)C1CCCCC1	-0.9	12
Cn1nnc2cc(C(=O)N3CCCCC3)ccc21	-2.2	7
COc1ccc(S(=O)(=O)Nc2ccc3oc4ncccc4c(=O)c3c2)cc1OC	-1.5	/
CC(C)(C)c1cc(C(C)(C)C)n(-c2ccc(NC(=O)COCC(=O)O)cc2)n1	-7.2	/

7 of the compounds above, with values under each structure:
Fields – MgrA-DNA mod, Sa helicase inh
CCOC(=O)N1CCC(N2Cc3cccc(C(=O)N4CCN(c5cccc(Cl)c5)CC4)c3C2=O)CC1
→ /, 7
Cc1ccc(OCc2nnc(SCC(=O)c3ccc(F)cc3)n2-c2ccccc2)c2c1CCC2
→ -1.2, /
CCN(CC)CC(=O)Nc1ccc(S(N)(=O)=O)cc1
→ /, -7
Nc1nc(-c2ccc(-n3cccc3)cc2)cc(C(F)(F)F)n1
→ 7.7, /
CCN(C(=O)CC(C)C)C1CCCCC1
→ -0.9, 12
Cn1nnc2cc(C(=O)N3CCCCC3)ccc21
→ -2.2, 7
COc1ccc(S(=O)(=O)Nc2ccc3oc4ncccc4c(=O)c3c2)cc1OC
→ -1.5, /

Further compounds.
SMILES	MgrA-DNA mod	Sa helicase inh
COc1ccc(OC2C(=O)N(Cc3ccc4c(c3)OCO4)C2c2cccs2)cc1 (stereo not drawn)	-1.3	5
CC(C)OC(=O)CSc1n[nH]c(=O)[nH]c1=O	/	18
COC(=O)c1[nH]c(C)c(C(=O)OC)c1C	-0.6	-19
COc1ccc(C2CC(=O)C3=C(C2)Nc2ccccc2NC3c2cc(OC)c(O)c(OC)c2)cc1 (stereo not drawn)	0.8	/
COC(=O)NC12CC3CC(CC(C3)C1)C2	4.2	5
COc1ccc(CN2C(=O)CC(C(=O)Nc3ccc(C(=O)O)cc3)SC2=Nc2ccccc2)cc1 (stereo not drawn)	-1.6	/
C=CCSc1nc2c(cc1C#N)CCC2	0.9	0
O=S(=O)(c1ccc(Cl)cc1)C(F)(F)F	0.9	-1
O=C(Nc1ccc(-c2nc3ccc(Br)cc3c(=O)o2)cc1)c1ccco1	/	26
COc1ccc(S(=O)(=O)N2CCCC2C(=O)N2CCc3cc(OC)c(OC)cc3C2)cc1 (stereo not drawn)	3.6	9
CCOc1cc(CCC(=O)NCCn2ccnc2C)on1	-1.1	7
CCN(CC)C(=O)c1ccc(N)cc1	/	-6
N#Cc1c(NC(=O)COc2ccccc2)sc2c1CCC2	/	22

Assay outcomes: PubChem BioAssay, ICCB-Longwood Screening Facility, Harvard Medical School
